A1 apoptosis 2: A1 inhibitors via caspase activation, primary screen, cell-based, luminescence, HTS, two replicates; MEF A1-2A-BIM cells, caspase-Glo luminescence, 3 h; percent of clofoctol response, DMSO zero; caspase activation, % (test concentration not listed); 24,000 tested, under 10 active; in the data active = caspase activation above about 5.9%;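 also: wells of about 30 µL received 50 nL stock; the first replicate is given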
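Test system – A1-2A-BIM-expressing MEF cells · Input – 2500 cells/well · Medium – RPMI-1640 growth medium with 10% FBS · Compound dosing – 50 nL pinned compound · Timing – 3 h compound exposure at 37 °C · Technique – Caspase-Glo luminescence (DEVD substrate) · Evaluation – Caspase-3/7 activity from luminescence increase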
The depositor's hits bear a star. This is a subset; the hit share may differ from the screen's.

SMILES | A1 apoptosis 2
C[C@@H]1CCCCO[C@@H](CN(C)Cc2ccncc2)[C@H](C)CN([C@H](C)CO)C(=O)c2cc(NS(=O)(=O)c3ccc(Cl)cc3)ccc2O1 | 0.5
C[C@@H]1CN([C@H](C)CO)C(=O)Cc2cc(NS(=O)(=O)c3cccs3)ccc2O[C@H]1CN(C)Cc1ccc(Cl)c(Cl)c1 | -1.1
C[C@H]1CN([C@@H](C)CO)C(=O)Cc2cc(NC(=O)Cn3cnnn3)ccc2O[C@@H]1CN(C)Cc1ccc2c(c1)OCO2 | -0.8
C[C@@H]1CN([C@H](C)CO)C(=O)c2cccc(NC(=O)Nc3ccc(C(F)(F)F)cc3)c2O[C@@H]1CN(C)C(=O)Nc1ccc(C(F)(F)F)cc1 | -0.4
CC(C)NC(=O)N(C)C[C@H]1Oc2ccc(NS(=O)(=O)c3ccc(F)cc3)cc2CC(=O)N([C@H](C)CO)C[C@@H]1C | 0.6
Cc1noc(C)c1NC(=O)Nc1ccc2c(c1)C(=O)N([C@@H](C)CO)C[C@H](C)[C@H](CN(C)S(=O)(=O)c1c(C)noc1C)O2 | 1.6
C[C@@H]1CN([C@@H](C)CO)C(=O)c2cc(NC(=O)c3ccccc3)ccc2O[C@@H](C)CCCCO[C@@H]1CN(C)C(=O)Nc1cccc2ccccc12 | -0.2
C[C@H](CO)N1C[C@H](C)[C@H](CN(C)S(=O)(=O)c2ccccc2)Oc2ccc(NC(=O)Nc3ccc(F)cc3)cc2C1=O | -0.7
C[C@H](CO)N1C[C@H](C)[C@@H](CN(C)S(=O)(=O)c2ccc(Cl)cc2)Oc2ccc(NC(=O)Cn3cnnn3)cc2CC1=O | -0.2
COc1ccc(NC(=O)Nc2ccc3c(c2)C(=O)N([C@H](C)CO)C[C@@H](C)[C@@H](CN(C)S(C)(=O)=O)O3)cc1 | -0.3
C[C@@H]1CCCCO[C@H](CN(C)CC2CC2)[C@H](C)CN([C@@H](C)CO)C(=O)c2cc(NC(=O)CCC(F)(F)F)ccc2O1 | 1.0
COc1ccc(S(=O)(=O)Nc2ccc3c(c2)CC(=O)N([C@H](C)CO)C[C@@H](C)[C@@H](CN(C)S(=O)(=O)c2ccc(Cl)cc2)O3)cc1 | 0.7
C[C@H](CO)N1C[C@H](C)[C@@H](CN(C)CC2CC2)Oc2ccc(NC(=O)c3ccncc3)cc2CC1=O | 0.8
Cc1noc(C)c1NC(=O)N(C)C[C@@H]1OCCCC[C@H](C)Oc2ccc(NC(=O)CCC(F)(F)F)cc2C(=O)N([C@H](C)CO)C[C@H]1C | 0.4
C[C@@H]1CN([C@H](C)CO)C(=O)c2cccc(NC(=O)c3ccncc3)c2O[C@H]1CN(C)C(=O)Nc1cccc2ccccc12 | 0.8
COc1ccc(CN(C)C[C@@H]2Oc3ccc(NC(=O)Nc4ccc5c(c4)OCO5)cc3C(=O)N([C@H](C)CO)C[C@H]2C)cc1 | -0.7
C[C@H]1CN([C@@H](C)CO)C(=O)c2cc(NC(=O)Cc3cn(C)c4ccccc34)ccc2O[C@H]1CN(C)Cc1ccc(C(F)(F)F)cc1 | 0.1
C[C@H]1CN([C@@H](C)CO)C(=O)Cc2cc(N(C)C)ccc2O[C@H]1CN(C)Cc1ccc(C(F)(F)F)cc1 | -1.6
Cc1noc(C)c1S(=O)(=O)N(C)C[C@@H]1Oc2ccc(NC(=O)CCC(F)(F)F)cc2CC(=O)N([C@@H](C)CO)C[C@H]1C | 0.3
C[C@H](CO)N1C[C@H](C)[C@@H](CN(C)Cc2ccc(Oc3ccccc3)cc2)Oc2c(NS(=O)(=O)c3cccs3)cccc2C1=O | -1.0
O=C(CCCCCCC(=O)Nc1ccccc1O)N/N=C/c1cc(Br)ccc1O | -1.7
C[C@H](CO)N1C[C@H](C)[C@H](CN(C)Cc2ccc(C(F)(F)F)cc2)Oc2ccc(NS(=O)(=O)c3ccc(Cl)cc3)cc2CC1=O | -1.5
COc1ccc(NC(=O)N(C)C[C@H]2OCCCC[C@@H](C)Oc3ccc(NC(=O)CCCN(C)C)cc3C(=O)N([C@@H](C)CO)C[C@H]2C)cc1 | 0.2
O=C(Nc1cc(Br)ccc1C(=O)NCc1cccc(O)c1)c1ccccc1 | 0.0
C[C@H]1CN([C@@H](C)CO)C(=O)c2cc(NC(=O)C3CC3)ccc2O[C@@H]1CN(C)S(=O)(=O)c1cn(C)cn1 | 0.7

The final 4 compounds of the part before are carried over, then new ones follow:
SMILES | A1 apoptosis 2
C[C@H](CO)N1C[C@H](C)[C@H](CN(C)Cc2ccc(C(F)(F)F)cc2)Oc2ccc(NS(=O)(=O)c3ccc(Cl)cc3)cc2CC1=O | -1.5
COc1ccc(NC(=O)N(C)C[C@H]2OCCCC[C@@H](C)Oc3ccc(NC(=O)CCCN(C)C)cc3C(=O)N([C@@H](C)CO)C[C@H]2C)cc1 | 0.2
O=C(Nc1cc(Br)ccc1C(=O)NCc1cccc(O)c1)c1ccccc1 | 0.0
C[C@H]1CN([C@@H](C)CO)C(=O)c2cc(NC(=O)C3CC3)ccc2O[C@@H]1CN(C)S(=O)(=O)c1cn(C)cn1 | 0.7
C[C@@H]1CCCCO[C@H](CN(C)C(=O)Nc2cccc3ccccc23)[C@H](C)CN([C@@H](C)CO)C(=O)c2cc(NC(=O)CCCN(C)C)ccc2O1 | -0.8
C[C@@H]1CCCCO[C@@H](CN(C)C(=O)Nc2ccccc2)[C@@H](C)CN([C@H](C)CO)C(=O)c2cc(NS(=O)(=O)c3ccccc3)ccc2O1 | 0.2
C[C@H](CO)N1C[C@H](C)[C@@H](CN(C)C(=O)Nc2ccccc2)Oc2ccc(NC(=O)Nc3ccccc3)cc2C1=O | -0.3
C=CCN1CCCc2c(-c3ccc(OCCO)cc3)noc2-c2cc(OC)c(OC)cc2CC1 | -0.9
C[C@@H]1CCCCO[C@H](CN(C)Cc2ccc3c(c2)OCO3)[C@H](C)CN([C@H](C)CO)C(=O)c2cc(NC(=O)CCC(F)(F)F)ccc2O1 | 1.1
C[C@@H]1CN([C@@H](C)CO)C(=O)c2cc(NC(=O)Nc3ccc(F)cc3)ccc2O[C@@H]1CN(C)Cc1ccncc1 | -0.7
C[C@@H]1CN([C@H](C)CO)C(=O)Cc2cc(NC(=O)Cn3cnnn3)ccc2O[C@H]1CN(C)Cc1ccc(C(=O)O)cc1 | 1.4
C[C@H](CO)N1C[C@H](C)[C@H](CN(C)C(=O)CCCN(C)C)OCCCC[C@H](C)Oc2ccc(NC(=O)NC3CCCCC3)cc2C1=O | 0.1
C[C@@H]1CN([C@H](C)CO)C(=O)c2cc(NS(C)(=O)=O)ccc2O[C@@H]1CN(C)Cc1ccc(-c2ccccc2)cc1 | -0.5
Cc1noc(C)c1NC(=O)N(C)C[C@H]1Oc2ccc(NS(=O)(=O)c3cccs3)cc2C(=O)N([C@@H](C)CO)C[C@@H]1C | -1.9
Cc1noc(C)c1S(=O)(=O)Nc1ccc2c(c1)C(=O)N([C@@H](C)CO)C[C@@H](C)[C@H](CN(C)S(C)(=O)=O)OCCCC[C@@H](C)O2 | -1.0
C[C@@H]1CN([C@H](C)CO)C(=O)Cc2cc(NC(=O)c3ccncc3)ccc2O[C@@H]1CN(C)Cc1ccc2c(c1)OCO2 | 0.4
COc1ccc(NC(=O)N(C)C[C@@H]2Oc3ccc(NC(=O)Nc4ccc(F)cc4)cc3C(=O)N([C@@H](C)CO)C[C@@H]2C)cc1 | 0.7
COc1ccc(NC(=O)N(C)C[C@H]2OCCCC[C@H](C)Oc3ccc(NC(=O)C4CCCCC4)cc3C(=O)N([C@H](C)CO)C[C@H]2C)cc1 | -0.2
COc1ccc(CN(C)C[C@@H]2Oc3ccc(NC(=O)C4CC4)cc3C(=O)N([C@H](C)CO)C[C@H]2C)cc1 | 0.2
Cc1ccc(S(=O)(=O)Nc2ccc3c(c2)C(=O)N([C@@H](C)CO)C[C@H](C)[C@H](CN(C)Cc2ccc(Oc4ccccc4)cc2)O3)cc1 | -1.3
C[C@H](CO)N1C[C@H](C)[C@@H](CN(C)C(=O)NC2CCCCC2)Oc2ccc(NC(=O)CCCCCC(=O)Nc3ccccc3N)cc2C1=O | 0.6
COc1ccc(S(=O)(=O)Nc2ccc3c(c2)CC(=O)N([C@H](C)CO)C[C@H](C)[C@H](CN(C)Cc2ccncc2)O3)cc1 | 0.1
Cc1cc(C(=O)Nc2cccc3c2O[C@@H](CN(C)C(=O)Nc2ccc(C(F)(F)F)cc2)[C@H](C)CN([C@@H](C)CO)C3=O)n(C)n1 | 1.4
C[C@@H]1CN([C@H](C)CO)C(=O)c2cc(NC(=O)c3ccccc3)ccc2O[C@@H](C)CCCCO[C@@H]1CN(C)Cc1ccc2c(c1)OCO2 | 1.0
C[C@@H]1CN([C@@H](C)CO)C(=O)c2cccc(NS(=O)(=O)c3ccccc3)c2O[C@@H]1CN(C)C(=O)Nc1ccc(F)cc1 | -1.1
Cc1noc(C)c1NC(=O)N(C)C[C@@H]1Oc2ccc(NC(=O)Cc3ccccc3)cc2C(=O)N([C@@H](C)CO)C[C@@H]1C | -0.1
CC(C)NC(=O)N(C)C[C@H]1OCCCC[C@H](C)Oc2ccc(NS(=O)(=O)c3ccc(Cl)cc3)cc2C(=O)N([C@H](C)CO)C[C@@H]1C | 0.5
C[C@H]1CN([C@@H](C)CO)C(=O)c2cc(NS(=O)(=O)c3cn(C)cn3)ccc2O[C@@H]1CN(C)S(=O)(=O)c1cn(C)cn1 | 0.2
C[C@H](CO)N1C[C@H](C)[C@H](CN(C)C(=O)Nc2ccccc2)Oc2c(NC(=O)CCCCCC(=O)Nc3ccccc3N)cccc2C1=O | 0.8

A draw from above in order of length of the SMILES, rising:
SMILES | A1 apoptosis 2
C[C@@H]1CN([C@H](C)CO)C(=O)Cc2cc(NC(=O)Cn3cnnn3)ccc2O[C@H]1CN(C)Cc1ccc(C(=O)O)cc1 | 1.4
C[C@H]1CN([C@@H](C)CO)C(=O)c2cc(NS(=O)(=O)c3cn(C)cn3)ccc2O[C@@H]1CN(C)S(=O)(=O)c1cn(C)cn1 | 0.2
C[C@@H]1CCCCO[C@H](CN(C)C(=O)Nc2cccc3ccccc23)[C@H](C)CN([C@@H](C)CO)C(=O)c2cc(NC(=O)CCCN(C)C)ccc2O1 | -0.8

(more compounds)
SMILES | A1 apoptosis 2
C[C@@H]1CN([C@H](C)CO)C(=O)c2cc(NC(=O)Nc3ccc(F)cc3)ccc2O[C@@H]1CN(C)S(=O)(=O)c1cn(C)cn1 | -1.2
C[C@@H]1CN([C@@H](C)CO)C(=O)c2cc(NC(=O)Nc3ccc(C(F)(F)F)cc3)ccc2O[C@H]1CN(C)C(=O)Nc1ccc2c(c1)OCO2 | -0.8
COc1ccc([Si](C)(C)[C@@H]2[C@@H](CCn3cc([C@H](O)c4ccccc4)nn3)O[C@]3(C(=O)N(c4ccccc4)c4ccccc43)[C@H]2C)cc1 | -0.5
C[C@H]1CCCCO[C@H](CN(C)Cc2ccc(Cl)c(Cl)c2)[C@@H](C)CN([C@@H](C)CO)C(=O)c2cc(N(C)C)ccc2O1 | 1.0
C[C@@H]1CN([C@@H](C)CO)C(=O)Cc2cc(NC(=O)Nc3ccccc3)ccc2O[C@@H]1CN(C)CC1CCCCC1 | 0.0
C[C@@H]1CN([C@@H](C)CO)C(=O)c2cccc(NC(=O)Nc3ccccc3)c2O[C@H]1CN(C)S(C)(=O)=O | 1.2
COc1ccc(NC(=O)N(C)C[C@@H]2Oc3ccc(NC(=O)CCN4CCOCC4)cc3C(=O)N([C@H](C)CO)C[C@H]2C)cc1 | 0.8
C[C@@H]1CCCCO[C@H](CN(C)Cc2ccncc2)[C@@H](C)CN([C@@H](C)CO)C(=O)c2cc(NC(=O)CCC(F)(F)F)ccc2O1 | 0.3
C[C@@H]1CN([C@@H](C)CO)C(=O)Cc2cc(NC(=O)Cn3cnnn3)ccc2O[C@H]1CN(C)Cc1ccc(C(F)(F)F)cc1 | -1.4
Cc1noc(C)c1NC(=O)Nc1ccc2c(c1)C(=O)N([C@H](C)CO)C[C@@H](C)[C@H](CN(C)C(=O)Nc1ccc(F)cc1)O2 | 0.5
C[C@@H]1CCCCO[C@@H](CN(C)Cc2ccc3c(c2)OCO3)[C@@H](C)CN([C@@H](C)CO)C(=O)c2cc(NC(=O)Nc3cccc4ccccc34)ccc2O1 | 0.0
C[C@H](CO)N1C[C@H](C)[C@@H](CN(C)C(=O)Nc2ccc3c(c2)OCO3)Oc2ccc(NS(=O)(=O)c3cn(C)cn3)cc2C1=O | 0.1
Cc1noc(C)c1NC(=O)N(C)C[C@@H]1Oc2c(NC(=O)c3nc4ccccc4s3)cccc2C(=O)N([C@@H](C)CO)C[C@@H]1C | -0.6
CC(C)NC(=O)N(C)C[C@@H]1OCCCC[C@H](C)Oc2ccc(NC(=O)CCCN(C)C)cc2C(=O)N([C@@H](C)CO)C[C@H]1C | -0.2
CC(C)NC(=O)N(C)C[C@H]1OCCCC[C@@H](C)Oc2ccc(N(C)C)cc2C(=O)N([C@@H](C)CO)C[C@@H]1C | 0.0
COc1ccc(NC(=O)Nc2ccc3c(c2)CC(=O)N([C@H](C)CO)C[C@H](C)[C@H](CN(C)S(=O)(=O)c2c(C)noc2C)O3)cc1 | -0.2
C[C@H]1CN([C@@H](C)CO)C(=O)c2cc(NC(=O)C3CC3)ccc2O[C@H]1CN(C)Cc1ccc2c(c1)OCO2 | -0.1
COc1ccc(CN(C)C[C@H]2Oc3c(NS(=O)(=O)c4ccccc4)cccc3C(=O)N([C@@H](C)CO)C[C@H]2C)cc1 | 0.1
COc1ccc([C@@H]2C=C(C(=O)O)O[C@H](OCc3ccc(CO)cc3)C2)cc1 | 0.0

Quoted at random: three records from the list, in no set order.
SMILES | A1 apoptosis 2
C[C@@H]1CN([C@@H](C)CO)C(=O)c2cc(NC(=O)Nc3ccc(C(F)(F)F)cc3)ccc2O[C@H]1CN(C)C(=O)Nc1ccc2c(c1)OCO2 | -0.8
C[C@@H]1CN([C@@H](C)CO)C(=O)c2cc(NC(=O)c3ccccc3)ccc2O[C@@H](C)CCCCO[C@@H]1CN(C)C(=O)Nc1cccc2ccccc12 | -0.2
C[C@H](CO)N1C[C@H](C)[C@H](CN(C)S(=O)(=O)c2ccccc2)Oc2ccc(NC(=O)Nc3ccc(F)cc3)cc2C1=O | -0.7

Compound activity from PubChem.
